Screening results (PubChem)
HPGD block: inhibitors of human 15-hydroxyprostaglandin dehydrogenase (HPGD); P15428; purified HPGD, NADH fluorescence kinetic, PGE2 substrate; 4.3% of 150,000 active; Potency, µM, for inactives: top-dose activity change, negative = inhibition, most hits filed as inhibitors; AID 894; active = well fitted inhibition curve with a large enough effect (not every such curve was filed as active); inconclusive = small, poorly fitted or top-dose-only effect, or another doubt; inactive = no such curve, though single readings can be large or run the other way;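 further: top concentration of the series not given in the record; plate controls included wells without enzyme; inactives centre near -10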
Target sequence (P15428 whole entry, looked up): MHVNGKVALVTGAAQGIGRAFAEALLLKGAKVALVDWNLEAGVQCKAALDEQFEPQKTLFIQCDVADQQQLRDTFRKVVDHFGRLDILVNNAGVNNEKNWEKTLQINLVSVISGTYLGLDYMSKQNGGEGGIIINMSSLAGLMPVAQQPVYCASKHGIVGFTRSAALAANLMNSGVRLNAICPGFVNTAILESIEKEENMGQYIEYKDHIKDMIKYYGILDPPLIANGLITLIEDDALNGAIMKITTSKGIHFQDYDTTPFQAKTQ
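20 nM HPGD preincubated 15 min at room temperature with compound in 50 mM Tris-HCl pH 8, 0.01% Tween 20. Started with 1 mM NAD+ and 30 uM prostaglandin E2; NADH fluorescence (360/450 nm) read 5 times over 30-s intervals, last minus first.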
* = called active by the depositor; u = inconclusive; & = joins results of further samples; [ ] = dose if it differs, or a comment. On the % scale 0 is the no-effect control and ±100 the full control effect; potency means the concentration at half of the fitted maximal effect. Some of the compounds tested (hit frequency here may not be typical).

HPGD block | Compound
-8% | Cc1ccc(OCCN2C(=O)NC3(CCc4ccccc4C3)C2=O)cc1 (stereo not given)
-3% | CCOc1cc(CNc2ccc(S(N)(=O)=O)cc2)cc(Cl)c1OC
u | CCOC(=O)c1sc2nc(CC(=O)OC)nc(NCC(=O)OC)c2c1C
-7% | CC(C)(C)n1nnnc1C(c1cccs1)N1CCCc2ccccc21 (stereo not given)
32µM* | CC1=NN(c2ccccc2)C(=O)/C1=C/c1cccs1
-9% | Cc1ccc(NC(N)=S)cc1C
-15% | Cc1ccc(NC(=O)CCC(=O)OCC(=O)c2ccc(Oc3ccc([N+](=O)[O-])cc3)cc2)cc1C
u | COC(=O)c1ccccc1NC(=O)c1ccc(COc2cc(C)cc(C)c2)o1
20µM* | C=CCn1c(-c2csc3c2CCC(C)C3)n[nH]c1=S (stereo not given)
u | Cn1c(=O)n(C)c2cc(/C=N/NC(=O)c3ccc(Cl)cc3Cl)ccc21
u | CSCC[C@H](NC(=O)OC(C)(C)C)C(=O)N/N=C/c1cc2ccc(C)cc2nc1Cl
-26% | CCOC(=O)C1=C(CC)OC(N)=C(C#N)C1c1ccsc1 (stereo not given)
-6% | CC(C)NC(=O)c1nc2ccccc2s1
u | COc1cc(/C=N/NC(=O)CSCc2ccc([N+](=O)[O-])cc2)cc(OC)c1OC
-12% | Cc1ccc(S(=O)(=O)CCC(=O)OCC(=O)c2c[nH]c3ccccc23)cc1

A section from further up, for reference:
HPGD block | Compound
-7% | CC(C)(C)n1nnnc1C(c1cccs1)N1CCCc2ccccc21 (stereo not given)
32µM* | CC1=NN(c2ccccc2)C(=O)/C1=C/c1cccs1
-9% | Cc1ccc(NC(N)=S)cc1C
-15% | Cc1ccc(NC(=O)CCC(=O)OCC(=O)c2ccc(Oc3ccc([N+](=O)[O-])cc3)cc2)cc1C

New compounds follow.
HPGD block | Compound
-16% | CCCn1c(-c2nonc2N)nc2ccccc21
-17% | Cc1c(C(=O)NCCC2=CCCCC2)cccc1[N+](=O)[O-]
-10% | CCN(CC)C(=S)SCC(=O)Nc1nc(-c2ccccc2)c(-c2ccccc2)o1
-9% | Cc1cccc(N2C(=O)CCC2=O)c1
-7% | CCOc1ccc(OCCCN(C)C)cc1
-1% | O=C1c2ccccc2C(Nc2ccc3c(c2)OCCO3)N1c1ccccn1 (stereo not given)
-1% | CCCCOc1ccc(CSC(=N)N)cc1[N+](=O)[O-]
-19% | O=C1NC(=O)/C(=C\c2ccccc2OCc2cccc([N+](=O)[O-])c2)N1
-29% | CC(C)n1cc(-c2ccc(Cl)cc2)cc(C#N)c1=O
-10% | CCOC(=O)c1c(N)sc2c(OC)c(Br)ccc12
-17% | CCOC(=O)c1ccc(N2C(=O)c3n[nH]c(-c4ccco4)c3C2c2ccc([N+](=O)[O-])cc2)cc1 (stereo not given)
-18% | O=C(c1cccc(F)c1)N1CCC[C@@]2(CCN(c3ncccn3)C2)C1
-14% | COc1cccc(/C=N/Nc2ncc(C(F)(F)F)cc2Cl)c1O
-7% | COC(=O)c1cc(NC(=O)CC2NC3CCCCC3NC2=O)cc(C(=O)OC)c1 (stereo not given)
u | Cc1ccc2nc(SCc3ccc([N+](=O)[O-])cc3)nc(C)c2c1
1% | Cc1ccc(-n2c(O)c(C=NCc3ccccn3)c3ccccc3c2=O)cc1
-14% | CCOC(=O)C(NS(=O)(=O)c1ccccc1)(C(F)(F)F)P(=O)(OCC(C)C)OCC(C)C (stereo not given)
-7% | CC[C@@H]1OC(=O)[C@@H](C)[C@H](O[C@H]2C[C@@](C)(OC)[C@@H](O)[C@H](C)O2)C(C)[C@H](O[C@H]2O[C@@H](C)C[C@@H](N(C)C)[C@@H]2O)[C@@](C)(O)C[C@H](C)C(=O)[C@@H](C)[C@H](O)[C@@]1(C)O (stereo not given in full)
-10% | COc1ccccc1-c1ccc(=O)n(CC(=O)NC(C)(C)C)n1
-4% | CC1(C)CC2CC(C)(CN2C(=O)C23CCC(C)(C(=O)C2)C3(C)C)C1 (stereo not given)
-18% | O=C(NNC(=O)c1cc2c(s1)CCCC2)c1ccccc1
-24% | CCC(C)NC(=O)CSc1nc2c(sc(=S)n2Cc2ccco2)c(=O)n1-c1ccccc1 (stereo not given)
-8% | Cc1nnc(C)n1/N=C/c1cccs1
-9% | CCOC(=O)C1=C(CNCc2ccc(C)cc2)NC(=O)NC1c1cc(C)ccc1C (stereo not given)
-4% | CC(C)(C[C@@]1(C)NC(=O)NC1=O)OCc1ccccc1
-7% | CC(C)(C)c1ccc(C(=O)c2c[nH]c(C(=O)NCc3cccs3)c2)cc1
-9% | CC1(C)CC(NC(=O)CC(c2ccccc2)c2ccccc2)CC(C)(C)N1
-14% | CCOc1ccc(C(=O)CCN2CCCCCC2)cc1
-10% | Cc1ccc(S(=O)(=O)Nc2c(C)[nH]c(=O)[nH]c2=O)cc1C
-11% | CC(C)N(Cc1nc(-c2ccc(Cl)cc2)no1)C(=O)c1cccs1
25µM* | CCOC(=O)c1c(N)ssc1=S
-4% | O=C1C2C3C=CC([C@@H]2C(=O)N1c1nccs1)C31CC1 (stereo not given in full)
-10% | CCCCN1C(=O)CC(N2CCOCC2)C1=O (stereo not given)
-28%&-34% | CC(C)(CO)Cc1cc(C(C)(C)C)c(O)c(C(C)(C)C)c1
-1% | CC(C)(C)c1ccc(-c2nnc(SCC(=O)Nc3sc4c(c3C#N)CCCC4)o2)cc1
-10% | O=C(C(Cc1ccccc1)n1cccc1)N1CCN(c2cccc(Cl)c2)CC1 (stereo not given)
-6% | C=CCn1c(COc2ccc(F)cc2)nnc1SCC(=O)NC(=O)NCc1ccco1
-19% | Cc1ccc(S(=O)(=O)NCc2ccco2)cc1C
-15% | O=C(COc1ccc(Cl)cc1)Nc1nnc(-c2ccc3c(c2)CCCC3)o1
-3% | C[C@@]12CC(=O)NC1N(C(=O)c1cccc(C(F)(F)F)c1)C(c1ccccc1O)C2 (stereo not given in full)
-10% | CCCC(=O)c1c[nH]c(C(=O)NCCc2ccccn2)c1
-12% | C/C(Cn1nnc([N+](=O)[O-])n1)=N\NC(=O)c1ccccc1Cl
u | Cc1ccc(CNC(=O)c2cc3c(-c4ccc(Cl)cc4)nn(C)c3s2)o1
-11% | O=C1CCCc2nc(NCc3ccco3)ncc21
3% | C=CCC(C)(NCc1ccccc1)c1ccco1 (stereo not given)

Three records drawn at random from those above:
HPGD block | Compound
25µM* | CCOC(=O)c1c(N)ssc1=S
-11% | O=C1CCCc2nc(NCc3ccco3)ncc21
-12% | C/C(Cn1nnc([N+](=O)[O-])n1)=N\NC(=O)c1ccccc1Cl

Next section
HPGD block | Compound
-5% | Cc1cc(C)c(S(C)(=O)=O)c(Oc2ccc(F)cc2)n1
-16% | O=C(Nc1cccc(-c2cn3ccsc3n2)c1)c1ccccc1
-2% | CC(C)[C@@H](C(=O)OCC(=O)Nc1ccc2c(c1)OCO2)N1C(=O)c2ccccc2C1=O
-10% | Cc1nc2ccc(NC(=S)NC(C)C)cc2nc1C
-7% | CCOC(=O)c1cnn(-c2ccc(C(C)C)cc2)c1NC(=O)C1CCC1
-2% | COc1ccccc1-n1cnc(N)c1C(C)=O
-15% | CC(C)(C)OC(=O)N1CCCC1C(=O)O (stereo not given)
-5% | O=C(Cc1ccccc1)NN1C(=O)C2C3C=CC(C4CC34)C2C1=O (stereo not given)
-16% | CCn1c(=O)c(C(C)=O)nc2ccccc21
-9% | COc1ccc(CC(=O)OCC(=O)NCCc2ccccc2)cc1OC
-8% | COc1cc(/C=N/NC(N)=S)ccc1OCC(=O)Nc1ccc(C)cc1
u | COc1cc(C(=O)Nc2ccc(S(=O)(=O)Nc3nccc(C)n3)cc2)cc(OC)c1OC
-14% | CCN(c1ccccc1)S(=O)(=O)c1ccc(Cl)c(C(=O)NCCc2ccc(OC)cc2)c1
-3% | COc1ccc(NC(=O)C(=O)N2N=C(C(C)C)CC2(O)C(F)(F)F)cc1 (stereo not given)
-17% | CCCC(=O)NC(c1ccco1)c1c(O)ccc2ccccc12 (stereo not given)
-19% | COc1ccccc1CNC(=O)CSCc1cnn(-c2ccccc2)c1-n1cccc1
-15% | O=S(=O)(O)c1ccc(NN(c2c(O)ccc3ccccc23)S(=O)(=O)O)cc1
-4% | O=S(=O)(c1cccs1)N1CCCc2ccccc21
u | CCC(=O)c1cc2c(cc1NC(=O)c1cccs1)OCCO2
-7% | COC(=O)Nc1snnc1C
-10% | CSc1ccc(C#N)cc1NC(=O)c1ccc(Cl)cc1Cl
-13% | COC(=O)c1ccc(CSc2nc3c(c(=O)n2-c2ccc(Br)cc2)SCC3)o1
u | Cc1cc(Cl)ccc1Nc1ncccc1C(N)=O
-6% | O=C(NC1CCCCC1)c1cccc(S(=O)(=O)N2CCOCC2)c1
-7% | COc1ccccc1Cc1noc(COc2cccc(C)c2C)n1
-8% | S=C(NC1CCCCC1)N(CCc1nc2ccccc2[nH]1)C1CCCC1
-8% | CC(=O)c1ccc(NC(=O)CN2C(=O)COc3ccc(Cl)cc32)cc1
-3% | O=C(Cc1ccccc1)N/N=C/c1cc(Br)c(Br)o1
u | Cc1ccc(N2CC(C(=O)Nc3ccc(N(C)C)cc3)CC2=O)cc1C (stereo not given)
-19% | COc1ccccc1CC(Cc1nc2ccccc2[nH]1)c1nc2ccccc2[nH]1 (stereo not given)
u | Cn1cc(/C=N\NC(=O)C2COc3ccccc3O2)c2ccccc21 (stereo not given)
43%[activator] | Cc1cc(-c2ccc(Cl)cc2)c(C#N)c(N)n1
-1% | C=CCn1c(SCC(=O)c2c(N)n(C)c(=O)n(C)c2=O)nc2sc(CC)cc2c1=O
-7% | Cc1c(C)n(CC(O)CN2CCCCCC2)c2ccccc12 (stereo not given)
-5% | O=C(Oc1ccccc1)n1c(=O)oc2ccc(Cl)cc21
-4% | N/C(=N\OC(=O)CSc1ccccc1)c1cccc([N+](=O)[O-])c1
-6% | Nc1cc(=O)[nH]c(SC/C=C/c2ccccc2)n1
-6% | COc1cc(NC(=O)CCc2nc(-c3cccs3)no2)cc(OC)c1OC
-13% | COCc1[nH]nc2c1C(c1ccsc1)C(C#N)=C(N)O2 (stereo not given)
-3% | Oc1ccc(Br)cc1CNn1cnnc1
-11% | COc1ccc(Nc2ncc(C(=O)O)c3ccccc23)cc1
u | O=C(CCCCCCN1C(=O)c2ccccc2C1=O)N1CCC(c2ccccc2)C1 (stereo not given)
-8% | Cc1c(NC(=O)Nc2ccc(Cl)cc2)c(=O)n(-c2ccccc2)n1C
-6% | CC1CCc2c(sc3nc(CN4CCOCC4)nc(Sc4ccccc4)c23)C1 (stereo not given)
u | Cc1ccc(SCc2[nH]nc3c2C(c2ccco2)C(C#N)=C(N)O3)cc1 (stereo not given)

An excerpt from above in order of the HPGD block value, smallest number first:
HPGD block | Compound
-8% | Cc1c(NC(=O)Nc2ccc(Cl)cc2)c(=O)n(-c2ccccc2)n1C
-6% | COc1cc(NC(=O)CCc2nc(-c3cccs3)no2)cc(OC)c1OC
-3% | Oc1ccc(Br)cc1CNn1cnnc1

Some of these compounds in order of length of the SMILES, rising:
HPGD block | Compound
-7% | Cc1c(C)n(CC(O)CN2CCCCCC2)c2ccccc12 (stereo not given)
-5% | O=C(Oc1ccccc1)n1c(=O)oc2ccc(Cl)cc21
u | Cn1cc(/C=N\NC(=O)C2COc3ccccc3O2)c2ccccc21 (stereo not given)
-8% | Cc1c(NC(=O)Nc2ccc(Cl)cc2)c(=O)n(-c2ccccc2)n1C
u | Cc1ccc(SCc2[nH]nc3c2C(c2ccco2)C(C#N)=C(N)O3)cc1 (stereo not given)

New compounds follow
HPGD block | Compound
-9% | COC(=O)C1=C(C)N(C)C(C)=C(C(=O)OC)C1c1ccccn1
-11% | Cc1ncc2c(c1OC(=O)c1ccc([N+](=O)[O-])cc1)COC(C)(C)OC2
-8% | Cc1ccc(C)c(NC(=O)Cn2nc(C(F)(F)F)cc2C2CC2)c1
-19% | CCOc1ccc(-c2n[nH]c(C)c2Oc2ccc(OC)cc2)c(O)c1
-15% | O=C(/C=C/c1ccc(Br)cc1)c1ccco1
-5% | CN(C)c1ccc(C(CNC(=O)c2ccc(F)cc2)c2c[nH]c3ccccc23)cc1 (stereo not given)
-4%&-8% | CCCCCCCCCCC/C=C\C(C)(C)/C=C\CCCC(=O)O
-9% | Cc1ccc2[nH]c(=O)c(-c3nc4ccccn4c3NCc3ccco3)cc2c1
-16% | C=CCN1C(=O)C(Cc2ccccc2)SC1=Nc1ccc(C(=O)O)cc1 (stereo not given)
-7% | CCOc1ccc(NC(=O)CC2C(=O)N(c3ccc(OC)cc3)C(=O)N2CCc2cccs2)cc1 (stereo not given)
-6% | Cc1ccc(N(C(=O)CCC(=O)Nc2cc(C)on2)C(C(=O)NC2CCCC2)c2cccs2)cc1 (stereo not given)
-5% | CCCN1C(=O)SC(CC(=O)Nc2cccc3ccccc23)C1=O (stereo not given)
-15% | CN1CCN(c2nc3c(c(=O)[nH]c(=O)n3C)n2CCSc2ncccn2)CC1
-24% | Cc1ccc([N+](=O)[O-])cc1N/C=C/C(=O)c1ccco1
-10% | O=C(CSc1nnc(C2COc3ccccc3O2)o1)N1CCCCC1 (stereo not given)
-7% | c1ccc(-c2cc(N3CCOCC3)nc(-c3ccccc3)n2)cc1
0% | CN(C)CCCN1c2ccccc2Sc2cnccc21
-11% | CCC(C)[C@@H](N)C(=O)N/N=C/c1ccc2ncccc2c1 (stereo not given in full)
1% | CN1CCC2(CC1)CCN(C(=O)c1ccncc1)CC2
-14% | Cc1cccc2cc(C(c3nnnn3C3CCCC3)N3CCOCC3)c(=O)[nH]c12 (stereo not given)
-6% | Cc1ccc(-n2nc3c(c2NC(=O)c2ccc4c(c2)OCO4)CS(=O)C3)cc1 (stereo not given)
-16% | CCc1sc(C(=O)NC2CCN(C)CC2)cc1Br
-13% | CCCOc1cccc(-c2cc(C(=O)NNC(=S)NCC)c3ccccc3n2)c1
-5% | CCOc1ccc(C(=O)CCC(=O)O)cc1
-23% | FC(F)(F)c1cccc(Sc2cc(C(F)(F)F)nc(-c3ccccn3)n2)c1
